Source: PubChem
Bead autofluor: compound fluorescence in toxin protease inhibitor counterscreen; fluorescence intensity (no concentration beside the values); AID 624483; compound autofluorescence counterscreen, microsphere flow cytometry; hits give high values; 360,000 compounds, 3.1% hits;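 active = at least 3 SD above the mean of all compounds, about 16000 in these data; inconclusive = too few beads counted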;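 note: 100 nL of 1 mM stock went into each well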
BJeLR lethal: BJeLR cell viability loss; 300,000 compounds, 0.17% hits; BJeLR (HRASV12) viability, CellTiter-Glo ATP luminescence, 48 h; reference of the scale not given here; inhibition, % (test concentration not listed);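 active = replicate mean above 50%; inconclusive = above 50% but judged a plate artefact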;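 note: 50 nL library stock added to about 25 µL; numbers are from one replicate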
Mtb hypoxia rep: reduces hypoxia-regulated biosensor signal in M. tuberculosis | fluorescence inhibition, % (no concentration beside the values) | AID 1159583 | M. tuberculosis hypoxia-regulated fluorescent reporter, fluorescence | 300,000 compounds, 0.1% hits;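 active = 35 to 45% if threefold the growth effect, above 45% if 1.5-fold the growth effect; inactive = the rest, general growth blockers included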;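 note: wells of about 50 µL received 100 nL stock; 0% = vehicle wells and 100% = reference inhibitor wells; whole bacteria with a GFP reporter of the hypoxia response; strong numbers were not always called active; many hits fall short of the cut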
Sa ugtP lethal: compounds lethal to S. aureus RN4220 ugtP deletion mutant; OD600 growth, 16 h; some inactives read as strong as hits; growth inhibition, % (no concentration beside the values); 330,000 compounds, 0.54% hits;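 active = z-score under -3 and OD600 up to 0.15 on both plates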;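 note: plate controls were untreated wells for no effect and antibiotic for full effect; wells of about 80 µL received 100 nL stock; the first replicate is given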
RN4220 kill: kills Staphylococcus aureus RN4220. S. aureus RN4220 growth, OD600, 16 h. inhibition, % (concentration not given with the values). 330,000 compounds, 0.33% hits;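 active = z-score of -3 or lower and OD600 up to 0.18 on both plates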;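 note: plate controls were untreated cells for no effect and reference antibiotic for full effect; stock transfer was 100 nL into about 80 µL; one replicate is shown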
PrP UTR inh: suppresses PrP 5' UTR mRNA reporter expression; 340,000 compounds, 0.35% hits; AID 488862; inhibition, % (no concentration beside the values); cell-based PrP 5' UTR mRNA reporter, plate reader;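 active = every replicate at 50% or more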;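 note: 0 = median of the neutral control wells; tested in H4 reporter cells; numbers are from one replicate; inactives centre near -14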
Mtb hypoxia rep growth: further read-out of Mtb hypoxia rep, marked with its call; growth inhibition, %; measured here: M. tuberculosis growth (absorbance);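 0% = vehicle and 100% = reference antibiotic; read after six days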
* = called active by the depositor; ? = inconclusive; . = no result given; & = joins results of further samples.

SMILES | Bead autofluor | BJeLR lethal | Mtb hypoxia rep | Mtb hypoxia rep growth | Sa ugtP lethal | RN4220 kill | PrP UTR inh
CCCNNC(=O)C(O)(c1cccc(C)c1)c1cccc(C)c1 | 1984 | 10 | 14 | 13 | 3 | 4.1 | -15
CC1(C)CC(NC(=S)NC2CC2)CC(C)(C)N1 | 3374 | 2 | -13 | -6 | 4 | 3.1 | -45
Cc1nn(Cc2ccccc2)c(C)c1C(=O)NCc1ccccc1F | 4308 | -4 | 7 | 7 | 7 | 2.4 | -19
COc1ccc2c(CC(=O)Nc3ccc(OC)nc3)coc2c1 | 3478 | -12 | -17 | -2 | 1 | 6.2 | -18
O=C(NCCCN1CCOCC1)c1ccc(S(=O)(=O)Nc2ccccc2)cc1 | ? | -2 | 1 | -2 | 5 | 3.2 | -8
O=C(c1cccc(F)c1)N1CCC2(CC1)NCCc1[nH]cnc12 | 4162 | -2 | -2 | -2 | -3 | 2.8 | -13
O=C(OCc1nnc(-c2ccccc2)o1)c1ccc([N+](=O)[O-])s1 | . | . | 15 | 3 | 7 | 8.9 | 3
O=C(O)c1ccc(N=Cc2c(O)[nH]c(=O)[nH]c2=O)cc1 | 4049 | 1 | 10 | 0 | 1 | 1.3 | -26
CCc1ccccc1OCc1nc2ccc(S(=O)(=O)N3CCOCC3)cc2[nH]1 | 6132 | 0 | 2 | 2 | 2 | 4.1 | -14
CSCCC(NS(=O)(=O)c1ccc(Cl)cc1)C(=O)O (configuration not stated) | 4364 | 3 | 7 | 9 | 3 | 6.1 | -3
Cc1ccc(N(CC(=O)NN=Cc2ccc(OC3CSC3)cc2)S(=O)(=O)c2ccccc2)cc1 | . | . | 8 | 5 | 16 | -4.1 | .
CN=C1NC(C)(C)C2CCC(C)(CC2)S1 | 2841 | . | 17 | 7 | 5 | 2.9 | -13
Cc1cc2sc3ccccc3c(=O)c2c(C)c1O | 4734 | -1 | -3 | 15 | -2 | 3.0 | -30
O=C(CSc1nnc2scc(-c3ccccc3)n12)Nc1nsc(-c2ccccc2)n1 | 20413* | 6 | 8 | 5 | -14 | 2.2 | -56
COc1cc(NC(=O)CSc2nc(C3CC3)nc3ccccc23)cc(OC)c1 | 3830 | -8 | -2 | 9 | 1 | 5.3 | -2
COc1ccc(CC(=O)N/N=C(\C)CC(=O)Nc2ccc3c(c2)OCCO3)cc1OC | 3577 | -24 | . | . | . | . | -7
COc1ccc(CNC(=O)C2CCN(S(=O)(=O)N3CCCC3)CC2)c(OC)c1 | 5133 | 4 | . | . | . | . | -28
CCN(CC(O)CON=C1c2ccccc2-c2ccccc21)S(=O)(=O)c1ccc(Cl)cc1 (configuration not stated) | 2337 | -5 | 7 | 5 | -10 | -0.5 | -24
CN(Cc1ccco1)C(=O)Cn1cc(S(=O)(=O)N2CCCC2)c(S(=O)(=O)N2CCCC2)c1 | 4375 | -1 | 6 | 0 | 9 | 3.7 | -13
O=C1CCC([N+](=O)[O-])C(c2cccc([N+](=O)[O-])c2)N1 (configuration not stated) | 4843 | 1 | 2 | -2 | 2 | -0.3 | -26
Cc1ncc(CO)c(/C=N/NC(=S)Nc2cccc(Cl)c2)c1O | 2237 | -2 | . | . | . | . | -11
CCN1C(=O)CC(n2c(C)nc3ccccc32)C1=O (configuration not stated) | 3413 | 1 | . | . | 0 | -0.2 | -25
CCc1cc2c(=O)n(CC(C)C)cnc2s1 | 7532 | 5 | 12 | 4 | 1 | 9.5 | -75
COc1ccc(C(C[N+](=O)[O-])c2c(-c3ccccc3)cc3ccccn23)cc1 (configuration not stated) | 10767 | -10 | 8 | 8 | -8 | 17 | -30
CN(c1ccc(F)cc1)S(=O)(=O)c1ccc2[nH]cc(C(=O)O)c(=O)c2c1 | 2606 | . | . | . | -6 | -1.1 | -5
Remaining list, next part:
SMILES | Bead autofluor | BJeLR lethal | Mtb hypoxia rep | Mtb hypoxia rep growth | Sa ugtP lethal | RN4220 kill | PrP UTR inh
Cc1[nH]c(=O)[nH]c(=O)c1CSc1nnc([C@H](CC(C)C)NC(=O)OC(C)(C)C)o1 | 3184 | -2 | . | . | . | . | -12
N#Cc1nc(COc2ccccc2F)oc1NCCCn1ccnc1 | 3843 | 0 | . | . | 5 | -2.2 | -13
COC(=O)C1=C(c2ccc(F)cc2OCc2ccccc2)CC2CCC1N2C(=O)N1CCC(O)CC1 (configuration not stated) | . | . | 2 | 13 | 0 | 9.4 | .
CCC(C)C(NC(=O)OC(C)(C)C)c1cn(C(CCC(=O)OC(C)(C)C)C(=O)N2CCN(C(=O)OC(C)(C)C)CC2)nn1 (configuration not stated) | . | . | 1 | 6 | -7 | 3.2 | .
Cc1cc(C(=O)OCC(=O)Nc2ccc(F)cc2F)c(C)n1C1CC1 | 3899 | . | -11 | 8 | -3 | 3.1 | -7
CCC(=O)N1CCc2cc(S(=O)(=O)N3CCc4ccccc4C3)ccc21 | 4602 | 7 | . | . | -1 | 3.3 | 3
COc1ccc(C=NNC(=O)c2cccc(Br)c2)c(OC)c1 | . | . | 3 | 14 | 9 | -1.6 | .
CCc1ccc(C(=O)CSc2nnc(C3CC3)n2C2CC2)cc1 | 4096 | . | 7 | 3 | -9 | 6.6 | -22
Cc1ccc(S(=O)(=O)N2CCN(CC(=O)NN=Cc3ccncc3)CC2)cc1 | . | . | 14 | -2 | 5 | 1.4 | .
COC(=O)c1cnc(SCc2ccc(C)cc2)n1C | 4883 | 0 | 6 | 9 | 1 | 8.4 | -44
S=c1[nH]nc(C2CCCCC2)n1N=Cc1ccccc1 | . | . | 0 | -3 | 7 | 4.0 | .
Cc1cccc(C(=O)n2c(=S)nc3cc(C)ccn32)c1 | 3682 | -4 | 10 | -1 | -18 | 6.6 | -16
CCCC(=O)n1nc(-c2ccc(C)cc2)nc1NCc1ccco1 | 3879 | -1 | -4 | 7 | 3 | 26 | -64
C=CCNCCOc1ccc(C)cc1[N+](=O)[O-] | 2054 | 1 | . | . | . | . | 2
COc1ccccc1N1CCN(CC(O)COc2cccc3ccccc23)CC1 (configuration not stated) | 4348&6040 | 4&12 | -1&1 | -2&1 | -8&0 | 2.1&2.5 | -12&-6
CCn1cc([N+](=O)[O-])c(C(=O)N2N=C(c3ccc(Cl)c(Cl)c3)CC2c2ccccc2O)n1 (configuration not stated) | 4013 | -4 | 0 | -2 | -2 | 3.4 | -9
CCc1nc(SCC(=O)c2cc(C)ccc2C)n[nH]1 | ? | -1 | -3 | -6 | -4 | -0.7 | 2
CCOc1cccc(C(=O)NN=Cc2ccoc2)c1 | . | . | 10 | 6 | 8 | 2.0 | .
OC(CNCc1ccccc1)COc1ccccc1 (configuration not stated) | 3740 | 9 | 14 | 10 | 3 | 8.0 | 1
COc1ccc(CCC(=O)N(c2nnc(-c3cccnc3)s2)C(C)C)cc1 | 2463 | 3 | -6 | 14 | 0 | 0.1 | -9
CCOC(=O)C1(CCCc2ccccc2)CCN(C(=O)CCn2cncn2)CC1 | 4272 | -1 | 3 | 2 | -13 | 2.2 | -14
Cc1ccc(NC(=S)Nc2c(C)n(C)n(-c3ccccc3)c2=O)cc1 | 2503 | 6 | 15 | 4 | 3 | 2.5 | -3
Cc1ccccc1C(=O)N1CCC(C(=O)Oc2ccc(C#N)cc2)CC1 | 4396 | 10 | 2 | 0 | 3 | 5.7 | 2
CCc1ccccc1Oc1coc2cc(O)ccc2c1=O | 3355 | 0 | 9 | 5 | -2 | 2.3 | -5
COc1ccc(C(=O)N[C@H](C(=O)Nc2ccc(S(=O)(=O)N3CCOCC3)cc2)C(C)C)cc1 | 4199 | -5 | 0 | 12 | 1 | 3.1 | -19

Ordered by count of non-hydrogen atoms (falling): 13 of the compounds above.
SMILES | Bead autofluor | BJeLR lethal | Mtb hypoxia rep | Mtb hypoxia rep growth | Sa ugtP lethal | RN4220 kill | PrP UTR inh
CCC(C)C(NC(=O)OC(C)(C)C)c1cn(C(CCC(=O)OC(C)(C)C)C(=O)N2CCN(C(=O)OC(C)(C)C)CC2)nn1 (configuration not stated) | . | . | 1 | 6 | -7 | 3.2 | .
COC(=O)C1=C(c2ccc(F)cc2OCc2ccccc2)CC2CCC1N2C(=O)N1CCC(O)CC1 (configuration not stated) | . | . | 2 | 13 | 0 | 9.4 | .
CCN(CC(O)CON=C1c2ccccc2-c2ccccc21)S(=O)(=O)c1ccc(Cl)cc1 (configuration not stated) | 2337 | -5 | 7 | 5 | -10 | -0.5 | -24
COc1ccc(CC(=O)N/N=C(\C)CC(=O)Nc2ccc3c(c2)OCCO3)cc1OC | 3577 | -24 | . | . | . | . | -7
CCOC(=O)C1(CCCc2ccccc2)CCN(C(=O)CCn2cncn2)CC1 | 4272 | -1 | 3 | 2 | -13 | 2.2 | -14
COc1cc(NC(=O)CSc2nc(C3CC3)nc3ccccc23)cc(OC)c1 | 3830 | -8 | -2 | 9 | 1 | 5.3 | -2
N#Cc1nc(COc2ccccc2F)oc1NCCCn1ccnc1 | 3843 | 0 | . | . | 5 | -2.2 | -13
CCCC(=O)n1nc(-c2ccc(C)cc2)nc1NCc1ccco1 | 3879 | -1 | -4 | 7 | 3 | 26 | -64
Cc1ncc(CO)c(/C=N/NC(=S)Nc2cccc(Cl)c2)c1O | 2237 | -2 | . | . | . | . | -11
S=c1[nH]nc(C2CCCCC2)n1N=Cc1ccccc1 | . | . | 0 | -3 | 7 | 4.0 | .
CCOc1cccc(C(=O)NN=Cc2ccoc2)c1 | . | . | 10 | 6 | 8 | 2.0 | .
CC1(C)CC(NC(=S)NC2CC2)CC(C)(C)N1 | 3374 | 2 | -13 | -6 | 4 | 3.1 | -45
CN=C1NC(C)(C)C2CCC(C)(CC2)S1 | 2841 | . | 17 | 7 | 5 | 2.9 | -13

More entries follow:
SMILES | Bead autofluor | BJeLR lethal | Mtb hypoxia rep | Mtb hypoxia rep growth | Sa ugtP lethal | RN4220 kill | PrP UTR inh
COCc1ccc([C@@H]2C[C@H]3CN(Cc4cccnc4)C(=O)[C@]34CCCN24)o1 | 4022 | -1 | 7 | 10 | 12 | 3.9 | -21
Cc1ccc(NC(=O)c2ccccc2N(C)S(=O)(=O)c2ccccc2)c(C)c1 | 7685 | -5 | 4 | 6 | 21 | 6.7 | -12
COc1ccc(C2=NNC(=Nc3cc(S(=O)(=O)N(C)C)ccc3C)SC2)c(OC)c1 | 4554 | -13 | -3 | 13 | 5 | 4.1 | -5
CN(c1ccc(C(=O)N2CCCCCC2)cc1)S(=O)(=O)c1ccccc1 | 3448 | . | 6 | 4 | 8 | 15 | -14
O=C1CCCCC(=O)N(c2ccccc2)c2ccccc21 | 16379* | 2 | 3 | -5 | -3 | 2.0 | -20
O=C(NCCS(=O)(=O)NC1CCCCC1)c1ccc2c(c1)OCO2 | 5770 | -8 | -7 | 1 | 5 | 5.8 | -76
Cc1ccc(C)c(S(=O)(=O)N2CCCCC2CCNC(=O)C(=O)NCc2ccncc2)c1 (configuration not stated) | 3784 | 3 | . | . | . | . | -7
CC1(C(=O)O)COC(c2ccc(Cl)cc2)OC1 (configuration not stated) | 4513 | -11 | 8 | 9 | 2 | -0.1 | -7
O=C(O)c1ccc(NN=Cc2ccc(F)c(F)c2)cc1 | . | . | 2 | 9 | 12 | 0.6 | .
N#Cc1nc(-c2ccco2)oc1N1CCN(Cc2ccccc2)CC1 | 3367 | 12 | 7 | 4 | 4 | 5.5 | 3
NC(=O)Cc1nc(-c2ccc(F)cc2)cs1 | 5453 | -1 | -9 | 6 | 5 | 2.0 | -11
COc1ccc(CNC(=O)c2c[nH]c3c(OC)cc(OC)cc3c2=O)cc1 | 3967 | 4 | -6 | 0 | 2 | 2.1 | -12
O=C1CC(c2ccccc2Cl)CC(O)=C1C=Nc1ccccc1 (configuration not stated) | 2791 | 4 | 7 | 1 | 6 | 4.0 | -7
O=C(NCc1cccs1)C1CCN(S(=O)(=O)c2ccc(Cl)cc2)CC1 | 4436 | -3 | 0 | 9 | 4 | 1.6 | -6
CCOc1cc(/C=N/NC(N)=S)cc(Br)c1OCc1ccccc1C | 4114 | 0 | . | . | . | . | -36
COc1cc2c(cc1OC)CN(C(=O)/C=C/c1cccc([N+](=O)[O-])c1)CC2 | 3902 | 6 | 15 | 3 | -4 | 10 | -21
CN(C)C(CNc1ncnc2sccc12)c1cccs1 (configuration not stated) | 3366 | 10 | 3 | 15 | 8 | -0.1 | -13
COc1cc(NC(=O)COC(=O)/C=C/c2ccc(Cl)cc2Cl)cc(OC)c1 | 2233 | -15 | 12 | 4 | 2 | 4.1 | -7
